# Calb biofilm kill: mixture kills Candida albicans biofilm cells | C. albicans biofilm persisters + clotrimazole, fluorescence viability; primary screen in compound mixtures of four per well | inhibition, % at 7.6 µM | 0.02% of 120,000 active;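 active = inhibition above 30.3% in the primary screen of four-compound pools, then above 30% when the compound was retested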;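 also: compounds exposed to preformed 24 h biofilms for 48 h; the number belongs to the whole pool; some results filed as inactive read as strong as hits; inactives centre near 12; 0% = biofilm with clotrimazole alone and 100% = kill control; retested singly at about 60 µM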
#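 Incubation: 24 h biofilm formation, then 48 h compound exposure, 37 °C | Material: C. albicans biofilms | Buffer or medium: RPMI/MOPS medium, pH 7.0 | Measured by: 2-h Alamar Blue fluorescence, 535/590 nm excitation/emission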
# Active calls of the source: *.
SMILES,Calb biofilm kill
CC(C(=O)NCC1CCCCC1)N1CCN(S(=O)(=O)/C=C/c2ccccc2)CC1 (configuration not stated),11
CC1(C)Cc2ccccc2C(CSc2ccccc2C(=O)O)=N1,7
CCn1cc(C(=O)OCC(=O)c2cc(C)n(-c3cccc(C(F)(F)F)c3)c2C)c(=O)c2ccc(C)nc21,17
CCOC(=O)C1CCCN(C(=O)c2ccc(OC)c([N+](=O)[O-])c2)C1 (configuration not stated),10
C/C(=N\Nc1ccc([N+](=O)[O-])cc1)c1ccc(N2CCOCC2)cc1,6
COc1ccc(/C=C/C(=O)OCn2c(SC)nnc(C)c2=O)cc1OC,15
CCOC(=O)C1CCN(C2=C(NS(=O)(=O)c3ccc(Cl)cc3)C(=O)c3ccccc3C2=O)CC1,24
CCN(CC)Cc1nc2sc(C)c(C)c2c(=O)[nH]1,9
Cc1nc(Cl)c(Cl)n1CCOc1ccccc1,13
C#CCNC(=O)C1=C[C@@H](c2coc3ccccc3c2=O)C[C@@H](OCCCCO)O1,17
O=C(Cn1cc(C(F)(F)F)ccc1=O)N/N=C/c1ccccc1O,19
CCCc1nnc(SCC(=O)N2CCCCC2C)n1CCOC (configuration not stated),5
CC(=O)Nc1c(N)c2ccccc2oc1=O,10
Cc1ccc(NC(=O)c2ccc3c(c2)S(=O)(=O)c2ccccc2C3=O)cc1S(=O)(=O)N1CCOCC1,20
Cc1ccc([N+](=O)[O-])cc1N/C=C1\CCCCC1=O,6
Nc1ccc(C(CC(=O)O)n2cccc2)cc1 (configuration not stated),17
O=C(COc1ccc2ccccc2c1)N/N=C/c1ccccn1,27
COc1cc(NC(=O)CSc2nc3[nH]ncc3c(=O)n2-c2ccccc2C)cc(OC)c1OC,12
CCCOc1ccc(/C(O)=C2/C(=O)C(=O)N(CCCN3CCOCC3)C2c2ccncc2)cc1 (configuration not stated),2
N#CC1=C(N)Oc2n[nH]c(-c3ccccc3)c2C1c1ccsc1 (configuration not stated),7
CN(C)c1ccc(NC(=O)Nc2csc3ccccc23)cc1,17
COC(=O)CCCC1=CC2=C(c3ccccc3)C(=O)C(C)(OC(=O)C3CCCC3)C(=O)C2=CN1C1CCCC1 (configuration not stated),12
Cc1cc(C)cc(Oc2ccc(NC(=O)C3CC=CCC3C(=O)O)cc2)c1 (configuration not stated),6
O=C(Nc1ccccc1)Nc1ncc([N+](=O)[O-])s1,16
CCOc1ccc(S(=O)(=O)N(C)c2ccc(OCC(=O)Nc3nccs3)cc2)cc1,35

# In another format: results already given.
Compound | Calb biofilm kill
Cc1ccc(NC(=O)c2ccc3c(c2)S(=O)(=O)c2ccccc2C3=O)cc1S(=O)(=O)N1CCOCC1 | 20
Cc1ccc([N+](=O)[O-])cc1N/C=C1\CCCCC1=O | 6

# Returning to the listing; the 5 compounds before the break are reprinted first.
SMILES,Calb biofilm kill
CN(C)c1ccc(NC(=O)Nc2csc3ccccc23)cc1,17
COC(=O)CCCC1=CC2=C(c3ccccc3)C(=O)C(C)(OC(=O)C3CCCC3)C(=O)C2=CN1C1CCCC1 (configuration not stated),12
Cc1cc(C)cc(Oc2ccc(NC(=O)C3CC=CCC3C(=O)O)cc2)c1 (configuration not stated),6
O=C(Nc1ccccc1)Nc1ncc([N+](=O)[O-])s1,16
CCOc1ccc(S(=O)(=O)N(C)c2ccc(OCC(=O)Nc3nccs3)cc2)cc1,35
COc1ccc(C(=O)C2CCCN(C(=O)c3ccccc3C(C)=O)C2)cc1F (configuration not stated),7
CCOc1cc(/C=N/NC(=O)COc2nc(C)cc(COC)c2C#N)ccc1O,17
O=C(NC1CC1)C1=C[C@H](c2csc3ccccc23)C[C@H](OCc2ccc(CO)cc2)O1,17
O=C(COC(=O)CCC(=O)c1cccs1)NC1CC1,13
CC1CCN(C(=O)c2ccc3c(Cl)c4c(nc3c2)CCCC4)CC1,28
CC(=O)c1cc2c(cc1NC(=O)c1cccc(S(=O)(=O)N3CCN(C)CC3)c1)OCO2,15
CCCCN1/C(=C/c2ccc3ccccc3[n+]2CC)Sc2ccccc21,11
Cc1cc(C)nc(Nc2ncn[nH]2)n1,12
COc1ccc(C2=CC(=O)N(Nc3ccccc3)C2=O)cc1,7
CCOC(=O)N1CCN(C(=O)C2CCN(S(=O)(=O)c3cc(OC)ccc3OC)CC2)CC1,12
COc1ccc(NC(=O)COc2ccc3c(c2)CCC3)cc1,17
Fc1ccccc1C1c2cccn2CCN1C(=S)Nc1ccc(Br)cc1 (configuration not stated),14
CC(=O)Nc1ccc(NC(=O)CN(c2cccc(C(C)=O)c2)S(C)(=O)=O)cc1,12
CCCCNc1nc2ccccc2n1CC(=O)Nc1ccc2c(c1)OCCO2,7
CC12CC3CC(C)(C1)CC(Nc1nc(N4CCOCC4)nc4ccccc14)(C3)C2,17
CNC(=O)CSc1nccn1Cc1ccc(Cl)cc1,12
O=C(COC(=O)CCCNC(=O)c1ccc(Cl)cc1)Nc1ccc(Br)cc1,10
CCCCCCn1c(=O)[nH]c2c(c1=O)CCC2,17
CCC12OC(=N)C(C#N)(C1C)C(C#N)(C#N)C(c1ccccc1)O2 (configuration not stated),24
COc1ccc(/C(N)=N/OC(=O)Cc2cccs2)cc1OC,14
O=C(NCC#CCOCc1ccccc1)c1ccccc1,17
COc1ccc(N=C2SCC(c3ccccc3)=NN2C)cc1,14
N#CCCn1cc(C(=O)O)c(-c2cc3ccccc3o2)n1,4
CC(=O)Nc1ccc(N2C(=O)CC(N3CCN(Cc4ccc5c(c4)OCO5)CC3)C2=O)cc1 (configuration not stated),12
O=C(Nc1ccccc1)c1ccccc1C(=O)N1CCCCC1,14

# Laid out differently: 3 of the compounds above
COc1ccc(NC(=O)COc2ccc3c(c2)CCC3)cc1
  Calb biofilm kill: 17
Fc1ccccc1C1c2cccn2CCN1C(=S)Nc1ccc(Br)cc1 (configuration not stated)
  Calb biofilm kill: 14
CC(=O)Nc1ccc(NC(=O)CN(c2cccc(C(C)=O)c2)S(C)(=O)=O)cc1
  Calb biofilm kill: 12

# (list continues)
SMILES,Calb biofilm kill
CCSC1=NSC2=NC(=O)/C(=C\c3coc4ccccc4c3=O)C(=N)N12,14
COC1CCN(C(=O)c2ccc(OC3CCN(Cc4ccccn4)CC3)cc2)CC1,5
C=CCn1c(-c2oc3nc(-c4ccccc4)cc(-c4ccccc4)c3c2N)n[nH]c1=S,6
Cc1ccc(NC(=S)N(CCCN2CCOCC2)Cc2ccccn2)cc1Cl,12
Cc1c(Cl)cccc1NC(=S)NN,15
COc1cccc(NC(=O)c2ccn(C)n2)c1,8
O=C1CCCc2nc3c(cc21)C(O)Oc1ccccc1-3 (configuration not stated),-1
CN1CCN(C(=O)CC2C(=O)NCCN2Cc2ccc(-c3ccccc3)cc2)CC1 (configuration not stated),9
COC(=O)CCC(=O)NNC(=O)c1ccc([N+](=O)[O-])cc1,2
CN(CC(=O)Nc1cccc2ccccc12)C(=O)c1cccc(S(=O)(=O)N(C)C)c1,16
O=C(O)c1ccc(/C=N\Nc2ccc(S(=O)(=O)N3CCOCC3)cc2[N+](=O)[O-])cc1,14
COc1ccc(-c2nc3ncccn3c2Br)cc1,15
C/C(CC(=O)Nc1cccnc1)=N\NC(=O)c1ccc([N+](=O)[O-])c(Cl)c1,17
O=C(Cn1ccc(=O)[nH]c1=O)Nc1ccc(C(=O)O)c(O)c1,21
CCOC(=O)CCCCC(=O)c1[nH]c(=O)[nH]c1C[n+]1ccc(C)cc1,14
C/C(=N/Nc1cc(-c2ccccc2)nc(-c2ccccc2)n1)c1ccc(O)cc1,13
Cn1c(=O)[nH]c(=O)c2c1nc(Br)n2C/C=N/Nc1ccccc1,3
O=C(/C=C\c1cn(-c2ccccc2)nc1-c1ccccc1)Nc1nccs1,17
CCN(CC(=O)Nc1ccccc1SC)Cc1nc2ccccc2c(=O)[nH]1,19
Cc1c(Cl)cccc1NC(=O)Cn1cc(C(F)(F)F)cc(Cl)c1=O,16
c1ccc(-c2nnc(OCC3CCCO3)c3ccccc23)cc1 (configuration not stated),0
COc1ccc(OCc2cn3c(C)cc(C)nc3n2)cc1,5
O=C(NCCc1c[nH]c2ccccc12)[C@@H]1C[C@H]1[C@@H](NP(=O)(c1ccccc1)c1ccccc1)c1ccccc1,6
O=C(COc1ccc(Br)cc1)Nc1nc(-c2cccnc2)cs1,24
CC(C)(C)C(=O)N(Cc1ccc(Cl)cc1)Cc1cccnc1,9

# An excerpt of these results, tab-delimited:
molecule	Calb biofilm kill
O=C1CCCc2nc3c(cc21)C(O)Oc1ccccc1-3 (configuration not stated)	-1
CN1CCN(C(=O)CC2C(=O)NCCN2Cc2ccc(-c3ccccc3)cc2)CC1 (configuration not stated)	9

# More records follow.
SMILES,Calb biofilm kill
CCS(=O)(=O)Nc1cccc(C2=NN(S(=O)(=O)c3ccccc3)C(c3ccco3)C2)c1 (configuration not stated),19
O=C(NCCc1ccc2c(c1)OCCO2)c1ccc(F)cc1,13
CCN1CCN(C(=O)CSc2cc(=O)n(C)c3ccccc23)CC1,19
COc1ccc(NS(=O)(=O)c2ccc(N3CC(O)=C(c4ccccc4)C3=N)cc2)cc1,17
Clc1ccc(OCCSc2ncccn2)c(Br)c1,8
CC(=O)c1cccc(NC(=S)NC2CCCCC2)c1,9
S=C(NCc1cccs1)Nc1ccccc1,21
CCOC(=O)C1CCCN(c2oc(-c3ccc(OC)cc3)nc2C#N)C1 (configuration not stated),9
CN1CCN(S(=O)(=O)c2ccc3[nH]c(=O)oc3c2)CC1,3
O=C(NNS(=O)(=O)c1ccc(Br)cc1)C1CCCCC1,3
O=C(N/C(=C\c1cccs1)C(=O)N1CCOCC1)c1ccco1,14
CC1CC(C)CN(C(=O)C(C)N(C)CC(=O)Nc2ccccc2Cl)C1 (configuration not stated),1
C/C=C\C(=O)Nc1cccc(C2=NOC3(C2)C[C@@H](C(N)=O)N(C(=O)CC(c2ccccc2)c2ccccc2)C3)c1 (some centres not stated),13
COc1ccc(N(C(C)=O)S(=O)(=O)c2cccc3cccnc23)cc1,18
Fc1ccccc1CSCc1nc2ccccc2[nH]1,-1
CSc1nc(-c2ccccc2)nc(C(Cl)Cl)n1,7
COCCN1Cc2cccc(C(=O)Nc3ccc(S(=O)(=O)N4CCOCC4)cc3)c2C1=O,0
CCn1nc(CC(=O)O)c2ccccc2c1=O,61
Cc1cc2occ(CC(=O)NCc3cccs3)c2cc1C(C)C,10
CN(Cc1ccon1)C(=O)CC1C(=O)NCCN1Cc1cccc(Oc2ccccc2)c1 (configuration not stated),14
CN(C(=O)c1ccc(=O)n(Cc2ccc(Cl)cc2)c1)c1ccccc1,1
COc1ccc(/C=C/C(=O)Nc2cc(S(=O)(=O)N3CCOCC3)ccc2N2CCCC2)cc1OC,13
CCOC(=O)c1c(-c2ccc(C)o2)csc1NC(=O)CN1CCCCC1,7
O=C(O)/C=C/C(=O)Nc1ccc(Oc2ccc(NC(=O)/C=C/C(=O)O)cc2)cc1,15
O=C(Nc1c(Cl)cc(Cl)cc1C(=O)NCCN1CCOCC1)c1cccc([N+](=O)[O-])c1,14
Cc1ccc(N(C)S(=O)(=O)c2cccc(C(=O)Nc3nnc(C4CC4)s3)c2)cc1,6
O=C(CN1CCOCC1)N/N=C/c1ccc(C(=O)O)cc1,5
COc1ccccc1/C=N/NC(=O)CC(=O)NCc1cccnc1,9
CCNC(=S)N/N=C/c1ccccc1[N+](=O)[O-],9

# Source: PubChem (PCMD)

# These rows are one share of the data; the hit share may differ from the screen's.
